Kir21 block = blocks the mouse Kir2.1 inward-rectifier potassium channel; P35561; HEK293-Kir2.1, FluxOR thallium flux fluorescence; stronger effect = lower value; B-score at 10 µM; hit rate 0.85% among 310,000; AID 1672;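 active means fluorescence ratio B-score at or below minus 3 SD of library scores, with starting-brightness B-score within 2 SD, cut at about -4.2 in these data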;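 further: channel flux triggered by added potassium and thallium sulfate stimulus; B-score of peak minus minimum fluorescence over baseline after thallium stimulus; more negative B-score means stronger Kir2.1 block with less thallium influx; some compounds called inactive have numbers as strong as hits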
Target sequence (P35561 whole entry, looked up): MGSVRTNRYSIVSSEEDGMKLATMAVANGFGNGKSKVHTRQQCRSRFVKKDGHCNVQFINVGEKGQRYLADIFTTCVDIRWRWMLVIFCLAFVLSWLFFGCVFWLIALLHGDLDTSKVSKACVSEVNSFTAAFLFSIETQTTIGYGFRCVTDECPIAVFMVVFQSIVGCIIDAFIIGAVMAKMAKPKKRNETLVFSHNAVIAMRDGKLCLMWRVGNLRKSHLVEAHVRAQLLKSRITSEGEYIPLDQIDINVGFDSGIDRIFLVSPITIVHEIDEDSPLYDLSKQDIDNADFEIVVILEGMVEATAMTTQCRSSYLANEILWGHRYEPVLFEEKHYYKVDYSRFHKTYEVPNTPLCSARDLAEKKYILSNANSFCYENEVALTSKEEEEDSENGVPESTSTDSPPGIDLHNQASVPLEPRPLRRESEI
* hit, by the source's call; & = joins results of further samples.

SMILES | Kir21 block
O=C(NNC(=O)C1CC(=O)N(c2ccc3c(c2)OCCO3)C1)c1ccc(F)cc1 (stereo not given) | -0.09
Cc1cc(C)nc(N/N=C/c2ccc([N+](=O)[O-])o2)n1 | 1.9
CN(C)c1ccc(C(CC(=O)c2ccccc2)C2CCCCC2=O)cc1 (stereo not given) | -1.2
CC(=O)C1=C(C)NC(=O)NC1c1cc(Br)ccc1OCC#N (stereo not given) | -0.23
COc1ccccc1CCNC(=O)c1ccc(C)o1 | 0.31
Cc1cc(OCC(=O)Nc2c(C)n(C)n(-c3ccccc3)c2=O)ccc1[N+](=O)[O-] | -0.82
CC(C)Cn1c(N)c(C=O)c(=O)n(C)c1=O | -0.41
COc1cc(/C=C2\SC(=O)NC2=O)ccc1Oc1ccc([N+](=O)[O-])cc1[N+](=O)[O-] | -0.01
O=C(O)[C@H]1Cc2ccccc2CN1S(=O)(=O)c1ccc(F)cc1 | 1.3
O=C(N/N=C/c1cccc(C(F)(F)F)c1)c1ccc(O)cc1 | 2.1
COc1ccc(Cn2nnnc2CN2CCC(c3nc4ccccc4s3)CC2)cc1 | 4.2
COC(=O)c1sc(N)c(C(=O)OC)c1COC(=O)CNS(=O)(=O)c1ccc(C)cc1 | 0.75
CC1CN(S(=O)(=O)c2cccc(C(=O)Nc3ccccc3N3CCCC3)c2)CC(C)O1 (stereo not given) | 1.2
CC1=CC(=C(C#N)c2nc3ccccc3s2)C=C(C)N1CC1CCCO1 (stereo not given) | 0.17
COC(=O)Cn1c(C)c(/C=C/c2cc[n+](C)cc2)c2ccccc21 | -7.7
Cc1cccc(C)c1N(CC(=O)NCc1ccco1)C(=O)CNS(=O)(=O)c1ccc(F)cc1 | -0.84
Oc1ccc(N2CCN(C(c3cccnc3)c3nnnn3Cc3ccccc3)CC2)cc1 (stereo not given) | -0.13
Cc1ccc(N2C(=O)CC(Sc3ccccc3C(=O)O)C2=O)c([N+](=O)[O-])c1 (stereo not given) | -0.37
CCOP(=O)(OCC)C(Nc1ccc([N+](=O)[O-])cc1)c1ccc(Cl)cc1 (stereo not given) | 1.4
CCCCSc1nc2ccccc2n1CC(=O)O | 1.2
COc1cccc(CN(C)C(=O)c2ccc3c(=O)n4c(nc3c2)CCC4)c1 | 1.4
O=C1CC(/C=C/c2ccccn2)=Nc2ccccc2N1 | -1.2
COC(=O)Cc1c(O)ccn(Cc2ccccc2OC)c1=O | -0.06
CCCCc1c(C)nn(-c2nnc3c4ccccc4n(C)c3n2)c1C | 0.01
Cc1ccc(C(=O)NN(C)c2nc3ccccc3nc2C(F)(F)F)cc1 | 0.96
COc1ccc(C2C(C#N)=C(N)Oc3n[nH]c(C)c32)cc1Cn1nc(C)c([N+](=O)[O-])c1C (stereo not given) | 1.1
O=C(c1ccc(Cl)c(Cl)c1)N1CCOCC1 | 0
COc1ccc(S(=O)(=O)Nc2ccc3c(c2)COC3=O)cc1OC | 0.74
CCOc1ccc(/C(O)=C2/C(=O)C(=O)N(c3ncccn3)C2c2ccc(C)cc2)cc1 (stereo not given) | 1.4
O=S(=O)(CCN(CCS(=O)(=O)C(F)(F)F)CC1CCCO1)C(F)(F)F (stereo not given) | -1.9
CCC(=O)NC1=C(Nc2ccc(N)cc2)C(=O)c2ccccc2C1=O | 2.1
O=C(CN1C(=O)CC(c2ccccc2)=Nc2ccccc21)NCc1ccccc1 | 0.08
N/C(=N\OC(=O)c1ccc(Cl)cc1[N+](=O)[O-])c1ccccn1 | -0.5
COC(=O)c1[nH]c(C)c(/C(O)=C2\C(=O)C(=O)N(CCN(C)C)C2c2cccc(OC)c2OC)c1C (stereo not given) | -0.94
COc1ccc(NS(=O)(=O)c2ccc(O)c(C(=O)OCC(=O)N3CC(C)OC(C)C3)c2)cc1 (stereo not given) | 0.14
Nc1nc(SCC(=O)NC2CCCCC2)[nH]c(=O)c1-c1ccccc1 | 0.24
O=C1NN(c2cccc(Br)c2)C(=O)/C1=C/c1cccs1 | -0.42
COc1cc(C)nc2nc(SCc3ccccc3)nn12 | 0.03
CC(=O)n1cc([C@H]2C=C(C(=O)N3CCOCC3)O[C@@H](OCCCCO)C2)c2ccccc21 | 0.54
CC(=O)N1N=C(c2ccc3ccccc3c2)OC12CCCC2 | 0.63
O=C(CNC(=O)c1ccc(Br)cc1)c1ccc(Br)cc1 | 1.1
O=C(O)C1Oc2cc3ccccc3cc2O1 | -1.6
CN(C(=O)CSc1nnc(Cc2ccccc2F)n1N)C1CCS(=O)(=O)C1 (stereo not given) | -0.26
COc1ccc(NC(C)=O)cc1NC(=O)CSc1nnc(-c2ccccc2)n1N | 0.13
FC(F)(F)c1ccc(N2CCN(c3ncnc4c3nnn4Cc3ccccc3Cl)CC2)cc1 | 0.43
Cc1c(Cl)c(C(F)(F)F)nn1CC(=O)N1CCSCC1 | 0.55
CCCCCc1c(C)nc(Nc2ccc(F)cc2)[nH]c1=O | -1.2
Cn1nc(C(F)(F)F)c(C(=O)Nc2ccc(F)cc2F)c1Cl | 0.57
CNC(=O)NNC(=O)c1onc(-c2c(Cl)cccc2Cl)c1C(=O)OC | -0.12
Cc1ccc(OCCn2c(Br)nc3c2c(=O)n(C)c(=O)n3C)cc1 | -1.2
CCN(CC)C(=O)c1ccccc1NC(=O)c1ccccc1SC | 0.06
O=[N+]([O-])c1ccc(COc2cccnc2)cc1 | 0.21
O=C(O)c1ccc(-n2nc(C(F)(F)F)c3c2CCCC3)cc1 | 0.11&-0.97
COc1cc(CN2CCNC(=O)C2CC(=O)N(Cc2nccn2C)C(C)C)cc(OC)c1 (stereo not given) | -1.3
COc1cccc(COC(=O)c2sc3nc4n(c(=O)c3c2C)CCC4)c1OC | -0.95
NCCCSC1=NCCCN1 | 1.2
CCN(CC)c1ccc(/C=N\N2CCN(Cc3ccc(C)cc3)CC2)cc1 | 0.17
COc1ccccc1C(=O)Nc1ccccn1 | 1.4
CCN1CCN(S(=O)(=O)c2ccc(S(=O)(=O)NC3CC3)cc2)CC1 | 1.7
Cc1noc(/C=C/N(C)C)c1S(=O)(=O)N1CCN(c2ccccc2)CC1 | 1.4

(list continues)
SMILES | Kir21 block
COc1ccc(NC(=O)Cn2c(=O)n(CC3CCCO3)c(=O)c3cc(OC)c(OC)cc32)cc1OC (stereo not given) | -0.41
NC(=O)c1c(NC(=O)C(=O)NCCCN2CCOCC2)sc2c1CCCC2 | -1.2
CCCNc1nc(NCC)nc(OC)n1 | 2.2
Cc1cc(-c2ccccc2)nc(N2CCC(C(=O)NC(C)C)CC2)n1 | 0.74
O=C(Nc1csc([N+](=O)[O-])c1)Nc1c(Cl)cccc1Cl | 0.04
O=C1CSC(=S)N1/N=C/c1ccc(C(F)(F)F)cc1 | -0.88
NC(=O)CC(NC(=O)Cc1cccc2ccccc12)c1ccc(NC2CCCCCCC2)c([N+](=O)[O-])c1 (stereo not given) | 2.6
COc1ccc(/C=C2/C(=O)N(Cc3ccccc3)N=C2C)cc1 | -2
O=C(Cn1c(=O)n(Cc2ccco2)c(=O)c2ccccc21)NCC1CCCO1 (stereo not given) | -0.03
COc1cccc(NS(=O)(=O)c2ccc3c(c2)n(C)c(=O)c(=O)n3C)c1 | 0.81
O=C(CSc1ccc(Cl)cc1)Nc1ncccn1 | 0.55
Cc1cc2c(NCCc3ccccc3)ncnc2s1 | -0.94
Cc1ccc(S(=O)(=O)N2CC(C(=O)O)Oc3ccccc32)cc1 (stereo not given) | 0.8
O=C(c1cccc(-c2ccc(O)cc2)c1)N1CCOCC1 | 0.88
O=CNc1ccc(OC(=O)c2cncc(Br)c2)cc1 | 1.4
O=C(c1ccc2nc(N3CCOCC3)sc2c1)N1CCCC1 | -0.82
CN(C)S(=O)(=O)N1CCC(Oc2ccc(C(=O)NCc3cnn(C)c3)cc2)CC1 | 0.85
S=C(N/N=C1\C2CN3CCN(C2)CC1(c1ccccc1)C3)Nc1ccccc1 | -0.35
Cc1nc(C)n(C(=O)N(c2ccccc2)c2ccccc2)n1 | -0.51
CCOc1ccccc1NC(=O)c1ccoc1C | -0.63
COC(=O)c1sc(NC(=O)COc2ccccc2OC)nc1C | 0.08
COc1ccc(C(=O)NNC(=O)C2=NN(c3ccccc3)C(=O)CC2)cc1 | 0.54
O=S(=O)(c1ccc2ccccc2c1)N1CCN(C2Cc3ccccc3C2)CC1 | -1.7
CC(C)CC(C(=O)Nn1cnnc1)N1C(=O)c2ccccc2C1=O (stereo not given) | -0.02
O=C1C=C(NCCOC23CC4CC(CC(C4)C2)C3)C2(CCCCC2)O1 | -2.3
CCN1CCN(C(=O)c2ccc(Sc3ccccc3Cl)c([N+](=O)[O-])c2)CC1 | -2.4
Cc1ccc(-c2nc(N)c3c(-c4ccc(C)cc4)nn(C(C)(C)C)c3n2)cc1 | -1.6
CCN(CC)c1ccc(NC(=O)CCc2nnc3ccc(N4CCCCC4)nn23)c(C)c1 | 0.02
Cc1ccccc1Nc1ncc(C#N)c(N)n1 | -0.83
CN(C)c1ccc(CNc2ncn[nH]2)cc1 | 0.78
Cc1ccc2c(c1)C1CC(C)(O2)N(c2cccc(C(=O)N3CCN(c4ccccn4)CC3)c2)C(=O)N1 (stereo not given) | -0.02
O=C(CC1Oc2ccccc2NC1=O)NCCCN1CCN(C2CCCCC2)CC1 (stereo not given) | 0.02
Cn1c(C(=O)OC(C(=O)NC2CCCC2)c2cccnc2)cc2sccc21 (stereo not given) | 0.65
Cc1cc(C)cc(N(CCC#N)C(=O)COC(=O)C2=COCCO2)c1 | -0.83
O=C(COC(=O)CN1C(=O)C(=O)c2ccccc21)OCN1C(=O)c2ccccc2C1=O | 0.36
COc1ccc(S(=O)(=O)Cc2ccc(C(=O)NCc3ccccc3)o2)cc1 | -2.3
COc1cccc(C2C(C(=O)Nc3nc4ccccc4s3)=C(C)NC3=C2C(=O)CC(C)(C)C3)c1OC (stereo not given) | -1.4
COc1ccc(/C=N/NC(=O)c2cccc(NC(=O)c3ccc(Cl)cc3)c2)c(OC)c1 | 0.52
COc1ccc(Cl)cc1NC(=O)CN(C)C(=O)Cn1c(=O)oc2ccccc21 | -0.32
O=C(O)Cc1ccc(NS(=O)(=O)c2ccccc2Cl)cc1 | 0.79
COc1ccc(S(=O)(=O)Nc2ncccn2)cc1 | -0.38
O=C(Cn1c(=O)oc2cc(S(=O)(=O)N3CCc4ccccc43)ccc21)N1CCCCC1 | -0.76
COc1cc(/C=C2\SC(=O)NC2=O)ccc1OCc1ccc(Cl)nc1 | -0.9
O=C(Nc1ccc2c(c1)OCCO2)c1cccc(Br)c1 | 1
CC(=O)Nc1nnc(SCC(=O)NC2CC2)s1 | 1.4

The list goes on, starting with the last 6 of the part before.
SMILES | Kir21 block
O=C(O)Cc1ccc(NS(=O)(=O)c2ccccc2Cl)cc1 | 0.79
COc1ccc(S(=O)(=O)Nc2ncccn2)cc1 | -0.38
O=C(Cn1c(=O)oc2cc(S(=O)(=O)N3CCc4ccccc43)ccc21)N1CCCCC1 | -0.76
COc1cc(/C=C2\SC(=O)NC2=O)ccc1OCc1ccc(Cl)nc1 | -0.9
O=C(Nc1ccc2c(c1)OCCO2)c1cccc(Br)c1 | 1
CC(=O)Nc1nnc(SCC(=O)NC2CC2)s1 | 1.4
Cc1ccccc1C(=O)OCCN1CCOCC1 | -0.02
CC(=O)NCCn1c(SCC(=O)NCCC(C)C)nc2ccccc2c1=O | 0.23
COc1ccccc1NC(=O)Cn1c2ccccc2c2nc3n(c(=O)c21)CCS3 | 1.6
O=C(O)c1ccc2c(=O)n3c(nc2c1)/C(=C/c1cccc(Cl)c1Cl)CCCC3 | 1.6
CCc1nc(SCC(=O)Nc2cc(C)on2)c2c(C)c(C)sc2n1 | 0.73
O=C(CSc1ccc2nnc(-c3ccccn3)n2n1)Nc1nccs1 | 1.4
O=C(N1CCOCC1)n1cnc2ccccc21 | 0.82
Cc1nn(C(=O)/C(C#N)=C/N(C)C)c(C)c1C | 1.8
COc1ccc(OCC(=O)Nc2cccc(C(=O)Nc3ccccc3C(=O)O)c2)cc1 | -2.3
O=C(O)CCN1C(=O)c2ccc(NC(=O)c3ccco3)cc2C1=O | 0.87
O=C(/C=C/c1ccc(OC(F)F)cc1)OCC(=O)N1CCN(C(=O)c2ccco2)CC1 | -2.7
O=C(CCN1C(=O)c2ccncc2C1=O)NCc1ccc(Cl)cc1 | 0.67
O=C(COc1ccc2c3c(c(=O)oc2c1)CCC3)N1CCCC1 | 0.92
CC(=O)c1c[nH]c(C(=O)NCc2cccc(C(F)(F)F)c2)c1 | -0.81
CCOC(=O)CNC(=O)Nc1nnc(-c2ccc(OCC)cc2)o1 | -0.18
C=CCNc1ncnc2c1cnn2-c1ccc(Cl)cc1 | -0.28
O=C(/C=C/c1cccc(Cl)c1)Nc1ccncc1 | 0.32
COc1ccc(S(=O)(=O)NC2CCCCC2)cc1C(=O)N1CCCCC1 | 0
COCCn1c(SCCN2CCCCC2)nc2ccccc2c1=O | 1.3
O=C(CCC(=O)OCC(=O)c1ccc(Br)cc1)NC1CCCCC1 | -0.82
Cc1ccc(C)n1-c1ccsc1C(=O)CC#N | -0.54
O=C(O)C(Cc1c[nH]c2ccccc12)N1C(=O)C2C3c4ccccc4C(c4ccccc43)[C@@H]2C1=O (stereo not given in full) | -0.69
O=C(NCc1ccco1)Nc1ccc2snnc2c1 | 0.38
Nc1ccc(C(=O)O)cc1S(=O)(=O)O | 0.21

By substructure, the entries above with a CF3 group.
SMILES | Kir21 block
O=C(N/N=C/c1cccc(C(F)(F)F)c1)c1ccc(O)cc1 | 2.1
Cc1ccc(C(=O)NN(C)c2nc3ccccc3nc2C(F)(F)F)cc1 | 0.96
O=S(=O)(CCN(CCS(=O)(=O)C(F)(F)F)CC1CCCO1)C(F)(F)F (stereo not given) | -1.9
FC(F)(F)c1ccc(N2CCN(c3ncnc4c3nnn4Cc3ccccc3Cl)CC2)cc1 | 0.43
Cc1c(Cl)c(C(F)(F)F)nn1CC(=O)N1CCSCC1 | 0.55
Cn1nc(C(F)(F)F)c(C(=O)Nc2ccc(F)cc2F)c1Cl | 0.57
O=C(O)c1ccc(-n2nc(C(F)(F)F)c3c2CCCC3)cc1 | 0.11&-0.97
O=C1CSC(=S)N1/N=C/c1ccc(C(F)(F)F)cc1 | -0.88
CC(=O)c1c[nH]c(C(=O)NCc2cccc(C(F)(F)F)c2)c1 | -0.81

This is a subset, and most or all hits are left out here.
